# CapD inh: Bacillus anthracis CapD inhibitors, primary screen, biochemical, fluorescence intensity; z-score (no concentration beside the values); purified CapD enzyme, fluorescence intensity read-out; stronger effect = lower value; some hits fall short of the stated cut; 0.23% of 140,000 active;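 active = z-score under -4 in either of two replicates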;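 also: stock transfer was 100 nL into about 40 µL; score is relative to mean and spread of the plate; one replicate is shown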
# AID504770: growth inhibition of E. coli YBA685, primary screen, V. cholerae RctB inhibitors; E. coli YBA685 rctB-dependent plasmid, OD600 growth, 3 h; stronger effect = lower value; z-score (concentration not given with the values); 0.27% of 130,000 active;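 active = z-score under -2 on both plates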;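 also: wells of about 30 µL received 100 nL stock; score is relative to mean and SD of the test wells; the first replicate is given; strong numbers were not always called active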
# * = called active by the depositor; . = not tested or not shown.
molecule | CapD inh | AID504770
Cc1ccc(C2=NC3(CCCCC3)NC2=O)cc1 | 0.47 | -0.35
CC(C)NC(=O)CCn1nc(-c2ccc(Cl)cc2)c2ccccc2c1=O | 0.48 | -1.1
O=C(CCl)O/N=C1\C(=O)N(Cc2ccc(Cl)cc2Cl)c2ccccc21 | -0.5 | .
O=C(Nc1ccccc1Br)c1cc(S(=O)(=O)N2CCN(c3ccccc3)CC2)ccc1F | -0.68 | .
COCCCN1CNC(=S)NC1 | 0.41 | .
CCN(CC)S(=O)(=O)c1ccc2c(c1)Cc1cc(S(=O)(=O)N(CC)CC)ccc1-2 | 0.18 | .
CCOC(=O)C1CCN(C(=O)c2cnn(-c3ccccc3)c2-n2cccc2)CC1 | -0.49 | 0
Cc1n[nH]c(=O)c2c(NC(=O)COC(=O)CC3(Cc4nc5ccccc5s4)CCCC3)oc(C)c12 | . | 2.7
O=C(O)c1ccc(-n2nnnc2SCC(=O)N2CCOCC2)cc1 | -0.62 | -0.7
O=C1CCCC2=C1C(c1ccc(O)c(O)c1)Nc1ccc3ncccc3c12 (stereo not given) | -0.69 | .
c1ccc(C(Sc2ncn[nH]2)c2ccccc2)cc1 | 0.2 | -0.55
Cc1[nH][nH]c(=O)c1C1=NCCC1 | -0.33 | 1.4
CC(=O)Oc1ccccc1C(=O)Oc1cccc(C)c1 | -0.35 | -0.55
COC(=O)c1sc(NC(=O)COC(=O)/C=C/c2ccc(C)o2)c(C(=O)OC)c1C | . | -0.7
C/C(=N\O)c1cc(Cl)cc(Cl)c1O | -0.14 | 0.2

# (next part)
molecule | CapD inh | AID504770
Nn1cnc2c(c1=O)C1(CCCCC1)Cc1ccccc1-2 | 0.14 | .
COc1ccc2c(c1)-c1c(ssc1=S)C(C)(C)N2C(=O)CN1C(=O)c2ccccc2C1=O | -0.3 | .
N#C/C(N)=C(/C#N)N=Cc1cccs1 | -1.6 | 0.8
CN(C)c1ccc(-c2nnc(-c3cccnc3)o2)cc1 | . | 0.8
Cc1ccc2c(c1)C(c1ccc(Br)cc1)=NNC(c1ccccc1)=N2 | 0.01 | .
CCOc1ccc(NC(=O)CCC(C(=O)O)C(C)C)cc1 (stereo not given) | 0.17 | 2.2
O=C(NC1CCCC1)C1CCN(S(=O)(=O)N2CCCCC2)CC1 | 0.26 | -0.3
COC(=O)C1C(=O)C2=C(CC1C)NC(C)=C(C(=O)OC(C)C)C2c1coc2ccccc2c1=O (stereo not given) | 0.77 | -0.6
CCOC(=O)C1C(=O)C=C(C)C(C(=O)OCC)C1c1ccccc1 (stereo not given) | -0.29 | .
N#C/C(C(=O)Nc1ccccc1)=C(/Nc1ccccc1)SCc1ccc(Cl)cc1 | -0.47 | .
CCOC(=O)CN1C(=O)/C(=C/c2ccccc2)SC1=S | 0.7 | 0.15
CC1SC(/N=C/c2ccc(O)cc2)=NNC1=O (stereo not given) | -0.95 | -1.6
CC(=O)NCCNC(=O)c1ccc(-n2nc(-c3ccccc3)cc2-c2ccccc2)cc1 | 2.6 | .
NC(=O)CSc1nc2c([nH]c3ccccc32)c(=O)n1-c1ccccc1 | 10 | 0.05
CCOC(=O)C(C)N1c2cccc3cccc(c23)S1(=O)=O (stereo not given) | 0.29 | -0.65

# As a working copy, part of the list above.
molecule | CapD inh | AID504770
Nn1cnc2c(c1=O)C1(CCCCC1)Cc1ccccc1-2 | 0.14 | .
COc1ccc2c(c1)-c1c(ssc1=S)C(C)(C)N2C(=O)CN1C(=O)c2ccccc2C1=O | -0.3 | .
N#C/C(N)=C(/C#N)N=Cc1cccs1 | -1.6 | 0.8
CN(C)c1ccc(-c2nnc(-c3cccnc3)o2)cc1 | . | 0.8
Cc1ccc2c(c1)C(c1ccc(Br)cc1)=NNC(c1ccccc1)=N2 | 0.01 | .
CCOc1ccc(NC(=O)CCC(C(=O)O)C(C)C)cc1 (stereo not given) | 0.17 | 2.2
O=C(NC1CCCC1)C1CCN(S(=O)(=O)N2CCCCC2)CC1 | 0.26 | -0.3

# Other structures:
molecule | CapD inh | AID504770
CC(=O)Nc1ccc(-n2sc3c(c2=S)-c2ccccc2NC3(C)C)cc1 | 0.54 | .
CCN(CC)C(=O)COc1ccc(C2C(C#N)=C(N)Oc3c2c(=O)oc2ccccc32)cc1OC (stereo not given) | 2.1 | .
CC(=O)Cn1cc(Cl)c(=O)c(Cl)c1 | -0.4 | 1.2
CCOC(=O)C1=C(CSc2nc(CC)c(C)cc2C#N)OC(N)=C(C#N)C1c1ccc(F)cc1 (stereo not given) | 0.55 | 0.1
Cc1ccc(OCC(=O)N2CCCCC2)cc1 | . | -0.25
CCOC(=O)c1c(NC(=O)CSc2nnc3c4ccccc4n(CC)c3n2)sc2c1CCN(C)C2 | 0.53 | 1.3
O=C(Cn1nnc(-c2cc(Cl)cc(Cl)c2)n1)NNC(=O)OCc1c(F)cccc1Cl | 0.55 | .
O=C(Cn1cc(/C=C2\NC(=S)N(c3ccccc3)C2=O)c2ccccc21)NCc1ccco1 | -0.16 | 1.6
O=C(Nc1ccc(Br)cc1)c1ccc(F)c(S(=O)(=O)N2CCN(c3ccccc3)CC2)c1 | -0.42 | .
COc1ccc(NS(=O)(=O)c2ccc3oc(SCC(=O)Nc4ccc5c(c4)OCO5)nc3c2)cc1 | . | 0.3
CN(CC(=O)Nc1ccc(F)cc1F)S(=O)(=O)c1ccc2c(c1)c(=O)n(C)c(=O)n2C | 59 | 0.15
CC(C)(C)c1ccc(OCCn2ccccc2=O)cc1 | . | 0.55
CC(NC(=S)Nc1ccc(S(N)(=O)=O)cc1)c1ccncc1 (stereo not given) | -0.095 | -0.05
CCc1ccc(C(=O)Cc2cc3cccc(OC)c3oc2=O)cc1 | -0.33 | -0.3
Cc1ccc2cc(CN(Cc3ccccc3)C(=O)C3CC3)c3nnnn3c2c1 | . | -0.2

# Next section:
molecule | CapD inh | AID504770
COc1ccc(Cn2c3ccccc3c3nc4ccccc4nc32)cc1 | 0.49 | 0.05
O=C(NC1CCN(C(=O)Nc2cccc(Cl)c2)CC1)C1CCCCC1 | . | 1.2
Cc1cc(=S)nc(C(C)C)[nH]1 | . | -3.5
O=C(Oc1ccccc1N1CCCCC1)c1sccc1Cl | -0.23 | -0.45
CCOC(=O)c1cc(C)n(CCCN2CCOCC2)c1C | 0.36 | -0.55
Cn1ncc2c(N3CCOCC3)ncnc21 | -0.98 | 0.5
CSc1nnc(NC(=O)c2ccc(C)c(C)c2)s1 | 0.45 | 0.1
CCCn1c(C)cc(C(=O)CSc2nnc(-c3cc(OC)c(OC)c(OC)c3)o2)c1C | . | 0.95
NC(=O)C1CCN(C(=O)Nc2cccc(Cl)c2)CC1 | -0.15 | -0.5
Oc1ccc(Nc2nc3nonc3nc2Nc2cccc(Br)c2)cc1 | -1.9 | .
O=C(CN1CCN(S(=O)(=O)c2ccc(Br)cc2)CC1)c1ccc2c(c1)OCO2 | -0.18 | -0.95
CC1CCCCN1C(=S)NC(=O)c1ccccc1Cl (stereo not given) | . | 1.8
COc1cc(-c2ccc(/C=C3\SC(=N)N(c4nccs4)C3=O)o2)c(OC)cc1Cl | -0.13 | -0.05
COc1ccc(C2=NN3C(C2)c2cc(OC)ccc2OC32CCCCC2)cc1 (stereo not given) | 0.93 | .
Cc1noc(-c2ccccc2)c1NC(=O)NCC1COc2ccccc2O1 (stereo not given) | 0.68 | -0.15

# (cont.)
molecule | CapD inh | AID504770
COc1cc(C#N)ccc1OCC(N)=O | -0.2 | -1
O=C(Cn1cc(C(F)(F)F)ccc1=O)NCC(F)(F)F | . | -0.95
CNC(=S)N1CCN(C(=O)/C(=C/c2ccc(F)cc2)NC(C)=O)CC1 | . | 1.1
CCN(CC)c1ccn(-c2nc(-c3ccccc3)oc2-c2ccccc2)c(=O)n1 | 8.4 | .
CCNc1nc(NCC)n2c(SCC(=O)c3c[nH]c4ccccc34)nnc2n1 | . | 0.15
CC1=C/C(=C\c2c(O)n(-c3cccc(C)c3)c(=O)[nH]c2=O)C(C)=N1 | -0.58 | 0.7
C1=C(CCNc2ncnc3nc[nH]c23)CCCC1 | -0.48 | 2.5
COc1ccc(OC)c(N(CC(=O)Nc2ccc(S(=O)(=O)N3CCOCC3)cc2)S(=O)(=O)c2ccccc2)c1 | 0.17 | .
Cc1ccc(CSc2nc(C(=O)C(F)(F)F)c3ccccn23)cc1 | 3.1 | .
CCOC(=O)c1cc2c(ccn2C)n1Cc1c(Cl)cccc1Cl | . | 0.3
C=CCn1c(C)nnc1SCC(=O)c1ccc2ccccc2c1 | . | 0.25
O=C(Nc1ccccc1C(=O)N1CCC(c2c[nH]c3ccccc23)CC1)c1ccc(Cl)cc1Cl | -0.2 | .
Cn1cnc2c1c(=O)n(Cc1ccccc1)c(=O)n2C | . | -1.1
CCOC(=O)N1CCN(C(=O)c2ccc(Br)cc2)CC1 | 0.18 | 0.3
CCC12CC3CC(O)(CC(O)(C3)C1)C2 | -0.05 | -0.1

# Other records follow:
molecule | CapD inh | AID504770
CC1=NC2(CCN(c3ccc(C(F)(F)F)cn3)CC2)N=C1c1cccc(C(F)(F)F)c1 | 0.07 | .
O=C1c2ccncc2C(=O)N1C1CCCCC1 | -0.33 | 0.6
CCOC(=O)c1c(C)n(-c2ccc(OC)cc2)c2ccc(Oc3ncccc3C#N)cc12 | 0.17 | 0.35
Cn1nc(NC(=O)COCC(=O)O)c2ccccc21 | 0.91 | 0.05
CCOc1ccc(NC(=O)CSc2nnc(NC(=O)c3c(F)cccc3Cl)s2)cc1 | -0.05 | .
COc1ccc(N(CC(=O)Nc2ccccc2Br)S(=O)(=O)c2ccc(C)cc2)cc1OC | 0.14 | .
O=C(Nc1nnc(-c2ccccc2)o1)C1CCN(C(=O)/C=C/c2ccccc2)CC1 | . | 1.1
Cc1ccc(C)c(-n2nnnc2SCC(=O)OCC(=O)c2cc(C)n(-c3ccc4c(c3)OCO4)c2C)c1 | . | -0.45
O=C(NCCCN1CCCC1=O)c1ccc(Cl)c(NS(=O)(=O)c2ccc(F)cc2)c1 | . | -0.35
CCCCn1c(=O)n(Cc2cc(=O)n3ccsc3n2)c(=O)c2c1ncn2Cc1ccco1 | . | -1
C=CCn1c(Cc2c[nH]c3ccccc23)nnc1SCC(=O)Nc1ccc(OC)cc1 | 0.005 | -0.25
CCOC(=O)C1CCN(CN2C(=O)C3(OCC(C)(C)CO3)c3ccccc32)CC1 | -0.045 | .
CCOC(=O)c1c(-c2ccccc2)csc1/N=C/c1sc2ccccc2c1O | 0.12 | .
CCC(C(=O)NC1CCCCC1)n1c(C(=O)OC)cc2sc(Cl)cc21 (stereo not given) | -1.3 | 0.3
CC(=O)N1CC(=O)N=C1SCC(=O)Nc1nc(-c2ccccc2)cs1 | . | 1.7

# The listing continues:
molecule | CapD inh | AID504770
Cc1ncc(COn2c(-c3ccccc3)nc3ccccc3c2=O)c(CO)c1O | 0.46 | .
CCC(=O)Nc1cc(C(F)(F)F)ccc1N1CCOCC1 | 0.43 | -0.45
CN(C)c1ccc2nc3c(=O)[nH]c(=O)[nH]c3nc2c1 | 0.17 | .
NC(=O)C1CCN(C(=O)OCCc2ccc(Cl)cc2)CC1 | 0.06 | .
C/C(=N\NC(=O)Cc1ccc(Cl)cc1)c1ccccc1O | . | -0.8
CS(=O)(=O)c1cc(C#N)c(N2CCN(C(=O)c3ccc(C(F)(F)F)cc3)CC2)nc1-c1ccccc1 | 0.12 | .
COc1cc(CCC(=O)NC(C)C(c2ccccc2)N2CCOCC2)cc(OC)c1OC (stereo not given) | . | 0.4
N#Cc1cccc(CS(=O)(=O)c2ccc(Cl)cc2)c1 | -0.3 | -0.75
Cc1nn(-c2ccccc2)nc1C(=O)ON1C(=O)C2C3C=CC(O3)C2C1=O (stereo not given) | -2.9 | -0.85
Cc1c(C(=O)N2CCC3(CC2)OCCO3)sc2ncnc(N3CCCCC3C)c12 (stereo not given) | -0.71 | .
Cc1ccc(S(=O)(=O)Nc2cc(Br)c3oc4c(c3c2)C(=O)CCC4)c(C)c1 | 0.1 | .
COC(=O)c1ccc(COc2cccc(OC)c2)o1 | 0.005 | -0.25
CNc1nc(-c2cccc(N)c2)cs1 | 0.58 | -1
CCCCOC(=O)C1=C(C)NC2=C(C(=O)CC(C)(C)C2)C1c1cc(Br)c(O)c(OC)c1 (stereo not given) | 18 | .
Cc1cccc(NC2=NC(=S)N(CC#N)C23CCCC3)c1 | -0.35 | .

# Continuation:
molecule | CapD inh | AID504770
CCN1CCN(C(c2cccs2)C(C)NS(=O)(=O)c2ccccc2)CC1 (stereo not given) | 0.3 | -1.1
CN(c1ccc(Cl)cc1)S(=O)(=O)c1ccc2[nH]cc(C(=O)NCCCN3CCOCC3)c(=O)c2c1 | 7 | .
Cc1ccccc1/C=C1/Sc2ccccc2C1=O | 1.7 | -0.8
Cc1cccc(-c2nc(CNC(=O)c3ccco3)cs2)c1 | 0.095 | -0.6
CN(C)/N=C/C=C1\CCC(C(=O)Nc2ccccc2)=C1N1CCOCC1 | . | -1.9
Cc1csc(NC(=O)C2CCC(C)(C(=O)O)C2(C)C)n1 (stereo not given) | -0.78 | 0.05
COC(=O)c1ccccc1SCC(=O)c1ccc(S(C)(=O)=O)cc1 | -0.86 | .
COc1ccc(-c2ccnc(SCC(=O)c3ccc(Cl)cc3)n2)cc1 | 0.7 | 0.05
O=C(CN1CCN(c2nc3ccccc3s2)CC1)Nc1ccc2c(c1)OCO2 | . | -0.2
Cc1nc(C(F)(F)F)ccc1C#N | -0.52 | .
Cc1sc2ncnc(Sc3nnc(CN4CCCC4=O)o3)c2c1C | . | -0.3
COc1ccccc1C(=O)CSc1ccccc1Cl | 0.13 | 0.3
CC(=O)Nc1ccc(/C=c2\sc3nc4cc(Br)cnc4n3c2=O)cc1 | -0.14 | .
NNC(=O)CCCc1nc2ccccc2s1 | . | -0.25
CC(=O)Nc1ccc(S(=O)(=O)Nc2cc(C(=O)N3CCC(C)CC3)ccc2N2CC3CC(C2)c2cccc(=O)n2C3)cc1 (stereo not given) | -0.6 | .
CC(=NCc1ccc2c(c1)OCO2)C1=C(O)c2ccccc2C1=O | -0.82 | 1.4
CSc1nc(=O)c2cccnc2n1-c1ccc(C)cc1 | -0.1 | .

# Screening results: PubChem, ICCB-Longwood Screening Facility, Harvard Medical School
